NPC1 prom act: activators of NPC1 promoter; Potency, µM (doses to about 9.22 µM), inactives show top-dose activation, hits mostly activators; AID 485313; Huh7 NPC1 promoter luciferase reporter, 24 h; 2.4% of 320,000 active;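 note: potency is the fitted concentration of half-maximal effect; % of control where 0% means no effect; nearly all actives have a fitted effect of over 60% in size; reporter is driven by a mutant NPC1 promoter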
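Luminescence read-out of NPC1 promoter-driven luciferase in stably transfected Huh7 cells; compounds delivered in DMSO and left 24 h at 37C, 5% CO2, qHTS titration format.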
RORgamma inh: inhibitors of mouse ROR gamma transcriptional activity. Potency, µM (doses to about 53.6 µM), without a hit: at the highest dose activity change, negative = inhibition, most hits filed as inhibitors. 5.4% of 310,000 active. P51450. AID 2551. Drosophila S2 Gal4-RORgamma UAS-luciferase reporter, 20 h; note: potency is the fitted concentration of half-maximal effect; % is set by controls: 0 for no effect and ±100 for the full control effect; nearly all actives have a fitted effect of over 60% in size
Target sequence (P51450 whole entry, looked up, the tested form may be a part): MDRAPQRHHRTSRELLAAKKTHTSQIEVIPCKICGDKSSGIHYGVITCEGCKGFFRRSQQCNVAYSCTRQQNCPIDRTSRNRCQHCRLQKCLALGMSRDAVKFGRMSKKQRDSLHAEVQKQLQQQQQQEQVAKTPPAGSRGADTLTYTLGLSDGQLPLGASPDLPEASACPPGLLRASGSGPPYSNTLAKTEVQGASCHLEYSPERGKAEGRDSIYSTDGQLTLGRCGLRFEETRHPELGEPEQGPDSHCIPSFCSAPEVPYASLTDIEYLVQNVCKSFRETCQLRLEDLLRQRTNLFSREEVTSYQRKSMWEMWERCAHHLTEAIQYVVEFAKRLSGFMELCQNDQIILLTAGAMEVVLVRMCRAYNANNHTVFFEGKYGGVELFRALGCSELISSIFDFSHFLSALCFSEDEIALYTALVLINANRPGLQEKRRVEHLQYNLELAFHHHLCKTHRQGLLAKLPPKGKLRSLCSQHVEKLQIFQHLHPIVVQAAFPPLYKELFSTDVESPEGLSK
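Stable Schneider cell line, Gal4 DNA-binding domain fused to ROR gamma, UAS-luciferase. Cmpd 1 hr RT → CuSO4 700 uM final → 20 hr RT → luciferase reagent 10 min → luminescence.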
Menin-MLL TR inh: menin-MLL binding inhibition, Texas Red mutant peptide. Menin + Texas Red MLL mutant peptide, fluorescence polarization. Potency, µM (titrated, usually from 61.6 µM), without a hit: top-dose FP activity change, negative = inhibition, actives largely listed as inhibitors. AID 1768. 0.23% of 270,000 active; active = well fitted inhibition curve with a large enough effect in the polarisation, with a control signal flat, not every such curve was filed as active; inconclusive = small, poorly fitted or top-dose-only effect, or effect the other way, or a change in a side signal; inactive = no such curve, though single readings can be large or run the other way; the % refers to the polarisation; note: potency is the fitted concentration of half-maximal effect; % of control where 0% means no effect; many of its hits are not listed in these tables
Giardia kill: kills Giardia lamblia; Giardia lamblia trophozoite viability; activity change, % at 7.66 µM, hits read low; 0.15% of 340,000 active; AID 540267; in the data active = activity change below about -80%; inconclusive = between about -30% and that limit;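 note: parasites exposed to compound for two days anaerobically before the ATP read; % is set by controls: 0 for no effect and ±100 for the full control effect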
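Luminescent ATP signal served as the viability read-out, measured 15-30 min after adding ATP detection reagent to trophozoites that had been incubated with compounds for 48 hrs at 37 deg C anaerobically at 100 cells/well.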
FLuc modulator: inhibits or activates purified firefly luciferase, miR-21 counter-screen. P08659. purified FLuc, Km substrates, luminescence inhibition. Potency, µM (doses to about 57.5 µM), for inactives: top-dose activity change, negative = inhibition, usual class: inhibitors. 6.9% of 360,000 active. AID 588342;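 note: potency is the fitted concentration of half-maximal effect; plate controls were vehicle for no effect and reference inhibitor for full effect; nearly all actives have a fitted effect of over 55% in size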
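Biochemical qHTS of compounds, final roughly 60 µM downward over six points, against 10 nM purified firefly luciferase using Km concentrations of substrates (10 uM D-luciferin, 10 uM ATP) in Tris acetate pH 7.5 buffer; luminescence output.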
VP16 counter: inhibits Gal4-VP16 luciferase reporter, ROR gamma counter-screen. Drosophila S2 Gal4-VP16 UAS-luciferase, luminescence, 20 h. 3.5% of 310,000 active. Potency, µM (titrated, usually from 53.6 µM), inactives show at the highest dose activity, negative = inhibition, hits mostly inhibitors. AID 2546;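 note: Gal4-VP16 expression switched on by copper sulfate through the metallothionein promoter; potency is the fitted concentration of half-maximal effect; % is set by controls: 0 for no effect and ±100 for the full control effect; nearly all actives have a fitted effect of over 50% in size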
ELG1 genotoxic: inducers of genotoxicity in HEK293T ELG1-luciferase cells; HEK293T ELG1-luciferase reporter, luminescence, 16 h; Potency, µM (top dose mostly 46 µM), without a hit: top-dose activity change, positive = activation, usual class: activators; 1.3% of 330,000 active; AID 504466; note: potency is the fitted concentration of half-maximal effect; % of control where 0% means no effect; nearly all actives have a fitted effect of over 60% in size
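16 hr compound incubation (37 °C, 5% CO2) of HEK293T cells carrying luciferase-tagged ELG1; luciferase then measured by ONE-Glo luminescence after 30 min at RT.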
p53 reactivation: restores transcriptional activity of mutant p53 | H1299 p53-A138V BP100-luciferase reporter, luminescence, 24 h | Potency, µM (series often up to 92.2 µM), without a hit: top-dose activity change, positive = activation, usual class: activators | 0.063% of 320,000 active | AID 504706; note: potency is the fitted concentration of half-maximal effect; % of control where 0% means no effect; nearly all actives have a fitted effect of over 45% in size
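p53-null H1299 cells stably carrying temperature-sensitive p53-A138V and a BP100-luciferase reporter were pinned with compounds (4-point, 1:5 series) and held 24 hrs at 37 deg C. Luminescence was read 10 min after detection reagent.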
BRCA1 expr up: activators of BRCA1 expression; MCF7-BRCA1-FFLuc reporter, luminescence, 48 h; response scale: scaled: vehicle 0%, 10 µM genistein 100%; Potency, µM (doses to about 46.1 µM), for inactives: top-dose activation, most hits filed as activators; 1.1% of 380,000 active; note: potency is the fitted concentration of half-maximal effect; nearly all actives have a fitted effect of over 80% in size; some results filed as inactive show a strong effect at the top dose
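Activators of BRCA1 expression were detected as increased firefly luciferase luminescence in engineered MCF7 cells after 48 h compound incubation. Signals were scaled to genistein 10 microM as full activation.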
Rab9 promoter act: activators of Rab9 promoter; Huh7 Rab9 promoter-luciferase reporter, luminescence, 24 h; Potency, µM (top dose mostly 9.22 µM), for inactives: top-dose activation, negative = inhibition, hits mostly activators; 2.8% of 320,000 active; AID 485297; note: potency is the fitted concentration of half-maximal effect; % of control where 0% means no effect; nearly all actives have a fitted effect of over 60% in size
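Promoter activation is measured as luciferase luminescence in Huh7 cells stably transfected with a Rab9 promoter–luciferase construct, following 24 h compound exposure at 37 °C and 10 min reagent incubation at ambient temperature.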
Numbers without * were called inactive; ? = inconclusive; / = not tested or not shown; [ ] = another dose, or the depositor's remark. Unless noted, calls come from the whole dose curve; as a rule, active = well fitted curve in the direction sought with a large enough effect; inconclusive = small, poorly fitted or top-dose-only effect, or another doubt; inactive = no such curve, though single readings can be large; an effect the other way counts as inactive or inconclusive. An excerpt. The share of hits here may be higher or lower than overall.

Results follow in this order: NPC1 prom act | RORgamma inh | Menin-MLL TR inh | Giardia kill | FLuc modulator | VP16 counter | ELG1 genotoxic | p53 reactivation | BRCA1 expr up | Rab9 promoter act
- O=C(CSc1nnc2c(Cl)cc(Cl)cn12)N1CCN(c2ccc(F)cc2)CC1
 : 1% | 24% | -5% | 29 | 4% | -11% | -8% | -4% | -15% | 1%
- CC[C@@]12C(=O)N(c3ccc(C)cc3)C(=O)N1[C@H](c1ccc(OC)cc1)[C@@H]1C(=O)N(C(C)(C)C)C(=O)[C@@H]12
 : 1% | 19% | 0% | 31[activator] | 4% | -13% | 11% | / | -9% | -7%
- O=C(CCS(=O)(=O)c1ccc(Br)s1)N1CCc2ccccc21
 : -3% | ? | -3% | 3 | ? | ? | 4% | ? | 8% | -3%
- COc1ccc(CN(CC(=O)NC2CCCC2)C(=O)CCC(=O)Nc2nccs2)cc1
 : 0% | 36% | -20% | -10 | 0% | 0% | -4% | -2% | -3% | -3%
- Cc1ccc(N2CC(C(=O)Nc3nnc(SCC(=O)NCC4CCCO4)s3)CC2=O)cc1C (stereo not drawn)
 : -2% | -17% | / | 13 | -10% | -14% | 4% | -14% | -12% | 6%
- CC(C)NCCCCOc1cccc(Br)c1
 : -6% | -14% | -25% | 7 | 6% | -2% | -6% | -10% | -8% | 0%
- Cn1c(N)c(C(=O)COC(=O)Cc2ccsc2)c(=O)n(C)c1=O
 : 9% | -1% | -10% | 24 | 4% | -11% | -2% | -1% | 11% | ?
- CCc1ccc(OCCSc2nc3ccccc3n2CC(=O)O)cc1
 : -2% | 16% | 21% | 6 | ? | 3% | -3% | -6% | 0% | -3%
- Nc1nnc(SCCOc2ccc(Br)cc2)s1
 : 21% | ? | 12% | -6 | ? | 4% | ? | 21% | 11µM* | 27%
- O=C(Nc1cccc(F)c1)C1CCCN1S(=O)(=O)c1cccc2cccnc12 (stereo not drawn)
 : 2% | -14% | 6% | 9 | 6% | 0% | 2% | -4% | -19% | 0%
- O=C(NCCCn1ccnc1)c1ccc(S(=O)(=O)N2CCCCCC2)cc1
 : 0% | -4% | 9% | 6 | 2% | -1% | -3% | 28% | -31% | 0%
- Cc1ccc(S(=O)(=O)N2CCC(=O)N([C@H](COCc3cccc(C)c3)Cc3ccccc3)CC2)cc1
 : / | -2%[40.7 µM] | 1% | / | / | -6%[40.7 µM] | / | / | / | /
- COc1ccc(/C=C2\CCC(C3CCCC3)C2=O)cc1Cn1cccn1 (stereo not drawn)
 : -1% | -13% | 1% | 0 | ? | ? | 12% | 15% | -26% | -4%
- COc1ccc(C(=O)/C=C/c2cccnc2)c(OC)c1
 : -16% | ? | 0% | 23 | 19µM* | ? | -13% | -15% | -65% | -8%
- C=C(C)CNC(=S)NN=C1c2ccccc2-c2ccccc21
 : 12% | 3.2µM* | 16% | -4 | ? | ? | -4% | 2% | -62% | -2%
- Cc1ccc(-n2c(=O)[nH]c3c(C(N)=O)nc(CC(C)C)nc32)cc1
 : 5% | -40% | -3% | 6 | -2% | -10% | 2% | 18% | -19% | -7%
- CSCCCNC(=S)Nc1cccc(S(=O)(=O)NC2=NCCC2)c1
 : -4% | 26% | 4% | -5 | 1% | 2% | 0% | -2% | -7% | 2%
- Nc1nnc(-c2ccc(Cl)cc2Cl)s1
 : 25% | -28% | 2% | 34[activator] | 12µM* | 7% | ? | 5% | 10µM* | ?
- CC(=O)N1CCN(c2ccc([N+](=O)[O-])c(NCC3CCCO3)c2)CC1 (stereo not drawn)
 : 1% | 4% | 7% | 40[activator] | -2% | -14% | 2% | 1% | -5% | 0%
- N#CC1=C(N)Oc2n[nH]c(-c3cccs3)c2C1c1ccoc1 (stereo not drawn)
 : 2% | 0% | -11% | 9 | 3% | 4% | 0% | 20% | 8% | 3%

As a working copy, part of the list above.
Results follow in this order: NPC1 prom act | RORgamma inh | Menin-MLL TR inh | Giardia kill | FLuc modulator | VP16 counter | ELG1 genotoxic | p53 reactivation | BRCA1 expr up | Rab9 promoter act
- Nc1nnc(SCCOc2ccc(Br)cc2)s1
 : 21% | ? | 12% | -6 | ? | 4% | ? | 21% | 11µM* | 27%
- O=C(Nc1cccc(F)c1)C1CCCN1S(=O)(=O)c1cccc2cccnc12 (stereo not drawn)
 : 2% | -14% | 6% | 9 | 6% | 0% | 2% | -4% | -19% | 0%
- O=C(NCCCn1ccnc1)c1ccc(S(=O)(=O)N2CCCCCC2)cc1
 : 0% | -4% | 9% | 6 | 2% | -1% | -3% | 28% | -31% | 0%
- Cc1ccc(S(=O)(=O)N2CCC(=O)N([C@H](COCc3cccc(C)c3)Cc3ccccc3)CC2)cc1
 : / | -2%[40.7 µM] | 1% | / | / | -6%[40.7 µM] | / | / | / | /
- COc1ccc(/C=C2\CCC(C3CCCC3)C2=O)cc1Cn1cccn1 (stereo not drawn)
 : -1% | -13% | 1% | 0 | ? | ? | 12% | 15% | -26% | -4%
- COc1ccc(C(=O)/C=C/c2cccnc2)c(OC)c1
 : -16% | ? | 0% | 23 | 19µM* | ? | -13% | -15% | -65% | -8%
- C=C(C)CNC(=S)NN=C1c2ccccc2-c2ccccc21
 : 12% | 3.2µM* | 16% | -4 | ? | ? | -4% | 2% | -62% | -2%
- Cc1ccc(-n2c(=O)[nH]c3c(C(N)=O)nc(CC(C)C)nc32)cc1
 : 5% | -40% | -3% | 6 | -2% | -10% | 2% | 18% | -19% | -7%
- CSCCCNC(=S)Nc1cccc(S(=O)(=O)NC2=NCCC2)c1
 : -4% | 26% | 4% | -5 | 1% | 2% | 0% | -2% | -7% | 2%

Just Menin-MLL TR inh, ELG1 genotoxic and Giardia kill, for some of the entries so far:
mol,Menin-MLL TR inh,ELG1 genotoxic,Giardia kill
COc1ccc(/C=C2\CCC(C3CCCC3)C2=O)cc1Cn1cccn1 (stereo not drawn),1%,12%,0
COc1ccc(C(=O)/C=C/c2cccnc2)c(OC)c1,0%,-13%,23
